NS1 function inh: qHTS Assay for Inhibitors of Influenza NS1 Protein Function; Potency, µM (doses to about 46.1 µM), for inactives: at the highest dose activity, positive = more growth; S. cerevisiae slowed by influenza A NS1, growth recovery by OD600; AID 2326, 2010; 270,000 tested, 0.4% active; also: actives are rising curves; nearly all actives have a fitted effect of over 50% in size
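Recovery from NS1-induced slow growth read by OD600 in budding yeast switched to galactose assay medium (pH 6.0, -URA) at 1:100 dilution. Compound 23 nl per well; the matching strain lacking NS1 serves as control.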
SARS PLP yeast: qHTS of Yeast-based Assay for SARS-CoV PLP; S. cerevisiae expressing SARS-CoV PLpro, growth rescue; control for the full effect not named in the record; Potency, µM (doses to about 32.9 µM), without a hit: top-dose activity, positive = growth rescue; 330,000 tested, 0.19% active; AID 485353, 2010; also: 0% is about no effect; nearly all actives have a fitted effect of over 55% in size; growth read by luminescence after 48 h
Lassa entry inh: qHTS for Inhibitors of binding or entry into cells for Lassa Virus; Lassa virus pseudotype entry inhibition, cell reporter; control for the full effect not named in the record; 300,000 tested, 1.2% active; Potency, µM (doses to about 37.9 µM), for inactives: top-dose activity change, negative = inhibition, hits mostly inhibitors; active means well fitted inhibition curve with a large enough effect; inconclusive means small, poorly fitted or top-dose-only effect, or effect the other way; inactive means flat fitted curve, though single readings scatter; tested in HEK293 cells; also: % is scaled to controls: 0 for no effect and ±100 for the full control effect; nearly all actives have a fitted effect of over 50% in size; luciferase read-out
RE007 growth inh: qHTS Assay for Inhibitors of the HIV-1 protein Vpr; 360,000 tested, 0.21% active; S. pombe RE007 Vpr strain, BacTiter-Glo ATP luminescence, 24 h; control for the full effect not named in the record; AID 651644, 2012; Potency, µM (top dose mostly 92.2 µM), inactives show top-dose activity change, negative = less growth; active = well fitted falling curve with a large enough effect; inconclusive = small, poorly fitted or top-dose-only effect; inactive = no such curve, though single readings can be large or run the other way;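 also: % is scaled to controls: 0 for no effect and ±100 for the full control effect; nearly all actives have a fitted effect of over 50% in size; the assay follows cell death caused by Vpr and the record does not say whether a fall means rescue or toxicity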
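Fission yeast RE007 carrying one integrated HIV-1 vpr copy, seeded at OD 0.01 in PMG+AL medium with 23 nL pinned compound. Grown 24 h at 30 degrees; viability read by BacTiter-Glo luminescence after 5 min.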
Cruzain Triton: qHTS Assay for Promiscuous and Specific Inhibitors of Cruzain (with detergent); Potency, µM, without a hit: max response, negative = inhibition, most hits filed as inhibitors; purified cruzain, Z-FR-AMC fluorescence, 0.01% Triton; 200,000 tested, 0.43% active; Cruzipain (Trypanosoma cruzi), P25779; AID 1478, 2009; active = well fitted curve in the direction sought with a large enough effect; inconclusive = small, poorly fitted or top-dose-only effect, or another doubt; inactive = no such curve, though single readings can be large; an effect the other way counts as inactive or inconclusive;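 also: plate controls were neutral wells for no effect and buffer without enzyme for full effect; nearly all actives have a fitted effect of over 40% in size; top concentration of the series not given in the record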
Target sequence (P25779 123-467 limits assumed): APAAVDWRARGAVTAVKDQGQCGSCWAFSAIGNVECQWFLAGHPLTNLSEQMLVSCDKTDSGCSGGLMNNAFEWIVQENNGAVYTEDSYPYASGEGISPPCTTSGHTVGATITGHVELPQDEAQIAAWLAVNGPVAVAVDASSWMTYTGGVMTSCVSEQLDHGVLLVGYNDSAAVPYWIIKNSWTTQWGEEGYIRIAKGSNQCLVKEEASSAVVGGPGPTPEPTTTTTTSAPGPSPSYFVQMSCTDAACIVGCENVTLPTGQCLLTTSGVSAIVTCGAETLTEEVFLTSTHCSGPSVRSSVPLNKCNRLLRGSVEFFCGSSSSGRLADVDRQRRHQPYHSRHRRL
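Compounds were screened in titration against cruzain (1.5 nM) with 0.01% Triton X-100 to counter colloidal aggregation. Activity was the AMC fluorescence increase over 60 s after adding 2 uM Z-FR-AMC at pH 5.5.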
Cruzain noTriton: qHTS Assay for Promiscuous and Specific Inhibitors of Cruzain (without detergent) | Cruzipain (Trypanosoma cruzi), P25779 | purified cruzain, Z-FR-AMC fluorescence, no detergent | Potency, µM, for the others: max response, negative = inhibition, usual class: inhibitors | 200,000 tested, 2.3% active; active = well fitted curve in the direction sought with a large enough effect; inconclusive = small, poorly fitted or top-dose-only effect, or another doubt; inactive = no such curve, though single readings can be large; an effect the other way counts as inactive or inconclusive;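 also: plate controls were enzyme without inhibitor for no effect and buffer without enzyme for full effect; nearly all actives have a fitted effect of over 40% in size; top concentration of the series not given in the record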
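Detergent-free condition (0.00005% Triton X-100) in acetate buffer pH 5.5 with DTT. 1.5 nM enzyme and compound were pre-mixed 15 min, then 2 uM Z-FR-AMC substrate added; reaction progress from fluorescence change between first and third reads (60 s).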
Marburg entry inh: qHTS for inhibitors of binding or entry into cells for Marburg Virus; 300,000 tested, 1.8% active; Marburg virus pseudotyped entry inhibition, cell reporter; control for the full effect not named in the record; about a third of the inactives were read at about 46 µM; Potency, µM (series often up to 37.8 µM), for the others: at the highest dose activity change, negative = inhibition, actives largely listed as inhibitors; active = well fitted inhibition curve with a large enough effect; inconclusive = small, poorly fitted or top-dose-only effect, or effect the other way; inactive = flat fitted curve, though single readings scatter; tested in HEK293 cells; about a fifth of its hits are not listed in these tables; also: % is scaled to controls: 0 for no effect and ±100 for the full control effect; luciferase read-out
2A StopGo: High Throughput Screening for Foot and Mouth Disease Virus Antivirals; human cells with a luciferase reporter of 2A StopGo recoding; control for the full effect not named in the record; Potency, µM (top dose mostly 57.9 µM), for inactives: at the highest dose signal change, negative = less light; 410,000 tested, 1.2% active; active = well fitted falling curve with a large enough effect; inconclusive = small, poorly fitted or top-dose-only effect; inactive = no such curve, though single readings can be large or run the other way; tested in HEK293T cells; also: % is scaled to controls: 0 for no effect and ±100 for the full control effect; nearly all actives have a fitted effect of over 45% in size; luciferase light after 4 h
* = called active by the depositor; ? = inconclusive; . = not tested or not shown; & = joins results of further samples; [ ] = dose if it differs, or a comment. Unless noted, calls follow the shape of the dose curve; as a rule, active means well fitted rising curve with a large enough effect; inconclusive means small, poorly fitted or top-dose-only effect; inactive means no such curve, though single readings can be large or run the other way. Potency is read from the fitted curve at half-maximal effect. Rows were taken by chance; any-hit rate near 4.7%.

SMILES	NS1 function inh	SARS PLP yeast	Lassa entry inh	RE007 growth inh	Cruzain Triton	Cruzain noTriton	Marburg entry inh	2A StopGo
CC(Oc1cc2oc(=O)c3c(c2cc1Cl)CCC3)C(=O)NCCCN1CCOCC1 (stereo not given)	-2%	-4%	-7%[46.1 µM]	-11%	.	.	-6%[46.1 µM]	3%
Cc1cc(C(=O)CSc2nc(N)cc(N)n2)c(C)n1C1CC1	.	-6%	.	5%	.	.	4%[46.1 µM]	7%
CN(C)c1oc(-c2ccccc2)nc1C#N	-31%	0%	9%	-2%	-7.8%	-8%	-17%	24%
CCc1ccc(NC(=O)C(=S)NC2CCCCC2)cc1	-3%	0%	?	-7%	.	.	?	33%[activator]
COCCNC(=O)C1CCC(CNS(=O)(=O)c2ccc3c(c2)CC(C)N3C(=O)C2CC2)CC1 (stereo not given)	-21%	1%	6%[46.1 µM]	-2%	.	.	11%[46.1 µM]	-4%
CC(=O)c1ccc([N+](=O)[O-])cc1	.	-5%	.	-1%	-2.0%	-9%	.	0%
CC(=O)c1cc(F)c(N2CCN(C(=O)Cc3ccccc3)CC2)cc1C	2%	-3%	12%	-10%	-13%	-5%	6%	?
O=C(CSc1nccc(-c2cccs2)n1)Nc1cccc(Cl)c1	-6%	-5%	-28%	13%	.	.	14%[14.2 µM]	-23%
C=C(C)Cc1c(C)c(C#N)c2nc3ccccc3n2c1NCCCN(C)C	-4%	-1%	16%	8%	.	.	13%	-6%
Cc1ccc(NC(=O)CCNC(=O)c2ccc([N+](=O)[O-])cc2)cc1C	-1%	2%	-27%[46.1 µM]	2%	.	.	6%[46.1 µM]	1%
O=C(Nc1ccc(C(=O)N2CCOCC2)cc1)c1cc(-c2cccnc2)nc2ccc(Br)cc12	-1%	-1%	?	8%	.	.	?	?
O=C(NCC(=O)N1CCC2(CC1)NCCc1[nH]cnc12)c1cccc(Cl)c1	3%	-3%	.	-4%	.	.	.	-3%
COc1cccc(C(=O)Nc2ccc(S(=O)(=O)Nc3cc(C)nc(C)n3)cc2)c1	2%	1%	-27%[46.1 µM]	8%	.	.	-1%[46.1 µM]	32%[activator]
CN(C)c1ccc(/C=C/c2cccc[n+]2[O-])cc1	-4%	0%	?	-3%	.	.	-19%[46.1 µM]	5%
CCCCNC(=O)CSc1nc2ccccc2n1S(=O)(=O)c1ccc(Br)cc1	6%	-6%	7%	0%	-3.4%	2%	-14%	-8%
Cc1cccc(S(=O)(=O)NCCc2ccccc2)c1	.	-1%	30%	0%	.	.	?	106%[activator]
COc1ccc(C(C)=O)cc1CN1CC=C(c2ccccc2)CC1	1%	-1%	25%[46.1 µM]	-16%	.	.	-26%[46.1 µM]	9%
CCN(CC)Cc1c(C(=O)OC)nnn1-c1nonc1N	5%	12%	6%	6%	4.1%	-4%	?	-23%
Cc1ccc(C(=O)NC2CC(C)(C)NC(C)(C)C2)cc1	8%	5%	8%[46.1 µM]	-3%	.	.	-23%[46.1 µM]	-5%
CCCSC1=NC2(CCN(C(=O)NC3CCCCC3)CC2)N=C1c1ccccc1	.	.	-11%[46.1 µM]	.	-0.9%	-3%	.	5%
Cc1cc(C)n2cc(CSc3nnc(-c4ccccc4)o3)nc2n1	-7%	0%	-13%	-10%	-3.8%	-16%	18%	-20%
Cc1c(C(=O)N/N=C/c2ccncc2)no[n+]1[O-]	8%	0%	1%[46.1 µM]	-16%	.	.	-1%[46.1 µM]	31%[activator]
COc1ccc2[nH]c(C)c(-c3csc(N)n3)c2c1	?	-2%	.	15%	.	.	.	-4%
CCC(c1nnnn1C(C)(C)CC)N(CCCO)Cc1cc2cc(C)cc(C)c2[nH]c1=O (stereo not given)	-71%	3%	4%	-3%	-2.2%	?	?	?
O=C(NCc1ccccc1)c1cccc(S(=O)(=O)N2CCOCC2)c1	0%	1%	24%	23%	2.0%	-1%	-11%[46.1 µM]	-6%

(cont.)
SMILES	NS1 function inh	SARS PLP yeast	Lassa entry inh	RE007 growth inh	Cruzain Triton	Cruzain noTriton	Marburg entry inh	2A StopGo
O=C(Cn1ncc2c(=O)oc3ccccc3c21)N1CCCN(Cc2ccccc2F)C1	?	-7%	2%	-7%	-3.2%	-11%	0%	-14%
O=C(COC(=O)C1CC1)Nc1c(Cl)cccc1C(F)(F)F	.	3%	-6%	24%	.	.	?	-10%
CN(Cc1cnccn1)C(=O)CC1C(=O)NCCN1CC(c1ccccc1)c1ccccc1 (stereo not given)	1%	0%	-3%[46.1 µM]	-15%	.	.	-5%[46.1 µM]	6%
Cc1ccc(C(=O)OCCc2sc[n+](Cc3ccccc3)c2C)cc1	-4%	8%	5%	13%	0.3%	-6%	-2%	-2%
Cc1onc(-c2ccccc2Cl)c1C(=O)OCC(=O)c1ccccc1	-16%	-8%	-11%	8%	-6.7%	2%	-17%	.
C#CCNC(=O)C1=C[C@H](C2CCCCC2)C[C@H](OCCCCO)O1	0%	-2%	.	2%	.	.	.	-9%
CCOC(=O)c1ccc(NC(=O)NCCOCCn2c(=O)oc3ccccc32)cc1	.	.	0%[46.1 µM]	.	-1.8%	3%	-26%[46.1 µM]	?
O=C(NC1(C(F)(F)F)N=C2SCCN2C1=O)c1cccnc1 (stereo not given)	21%	-12%	2%	15%	-0.7%	-10%	-11%	-20%
COC(=O)c1ccc(Cl)c(NC(=O)CN2CCOCC2)c1	-5%	1%	?	5%	-1.8%	11%	3%	-2%
O=C(CSc1nnc(CNC(=O)c2cccs2)o1)c1ccc(Cl)cc1	-1%	-3%	-10%	-4%	1.5%	-7%	1%	?
Cc1ccc(Cl)cc1N(C)C(=O)c1cnc(N2CCOCC2)c2ccccc12	.	.	-18%[46.1 µM]	.	-3.9%	?	.	-14%
CN1CC(=O)NC1=NC(=O)C12CC3CC(CC(C3)C1)C2	-10%	10%	-2%	-8%	3.3%	7%	-17%	-28%
CCOC(=O)Cc1csc(NC(=O)NC2(C(F)(F)F)Oc3ccccc3O2)n1	4%	-3%	-11%	0%	-7.9%	1%	3%	-20%
CC(=O)N1CCCc2cc(S(=O)(=O)N(C)CC(=O)Nc3cccc(Cl)c3C)ccc21	.	.	-25%[46.1 µM]	.	-2.9%	22%	.	0%
CC1(C)N([O-])C2=C(c3ccccc3C2=O)[N+](=O)C1(C)C	-9%	1%	-18%	-6%	-0.7%	8%	?	0%
COc1cccc2cc(C(=O)NCc3ccc(F)cc3)c(=N)oc12	7%	?	.	-1%	.	.	.	-6%
CC1=C(C(=O)OCc2ccccc2)N2C(=O)[C@@H](NC(=O)COc3ccccc3)[C@H]2SC1	10%	3%	.	5%	.	.	.	-14%
COc1ccc(-c2nc(CCNC(=O)c3cc(OC)c(OC)c(OC)c3)cs2)cc1	.	.	12%[46.1 µM]	.	-9.1%	?	.	-28%
O=C(COC(=O)CC1CC2CCC1C2)NCc1ccc(F)cc1 (stereo not given)	.	-11%	?	0%	.	.	-17%[46.1 µM]	-18%
Cc1ccnc(NC(=O)CCCOc2ccccc2)c1	-4%	0%	-3%[46.1 µM]	-13%	.	.	0%[46.1 µM]	13%
COc1cc(C[C@H](C)[C@H](C)Cc2ccc3c(c2)OCO3)ccc1O	-10%	-8%	.	?	.	.	.	-15%
CCOC(=O)N1CCC(N2CCN(Cc3ccc(C)o3)C(CCO)C2)CC1 (stereo not given)	1%	0%	-3%	-10%	.	.	8%[46.1 µM]	-1%
COc1ccc(-c2csc(NC(=O)COC(=O)Cc3ccc(Cl)cc3Cl)n2)cc1	-4%	-24%	.	.	-3.3%	?	-5%	.
CCOc1ccc(NC(=O)CSc2nc3cccnc3n2CCOC)cc1	-10%	-7%	26%	11%	-1.7%	-1%	-10%[46.1 µM]	-17%
Cn1c(SCC(=O)NCc2ccc3c(c2)OCO3)nnc1-c1cccs1	0%	0%	11%	-2%	-1.2%	1%	-5%	9%

Later entries.
SMILES	NS1 function inh	SARS PLP yeast	Lassa entry inh	RE007 growth inh	Cruzain Triton	Cruzain noTriton	Marburg entry inh	2A StopGo
COc1ccc(-c2nnc(C)c3nocc23)cc1	2%	-1%	.	12%	.	.	.	-2%
Cc1ccc(S(=O)(=O)N2CCC(C(=O)NCc3ccccc3Cl)CC2)cc1	-3%	7%	-13%[46.1 µM]	-2%	-0.7%&-2.0%	0%&6%	-16%&-16%	-5%&-13%
COC(=O)c1sc2nc(C)nc(SCC(=O)N3CCC(C(=O)O)CC3)c2c1C	?	3%	-2%	-12%	.	.	-2%	-5%
CCOC(=O)c1[nH]c2cc3c(cc2c1NC(=O)CN1CCCCC1C)OCO3 (stereo not given)	4%	-6%	.	.	-6.8%	-11%	-7%	.
CC(C)(C)NC(=O)Cn1c(SCC(=O)NC2CCCC2)nc2ccccc21	9%	9%	2%	-12%	.	.	2%[46.1 µM]	1%
CCOC(=O)C1CCN(C(=O)COC(=O)c2oc3ccccc3c2C)CC1	.	-5%	-3%	-8%	.	.	?	-17%
COc1ccc2c(=O)c3c(=O)n(CCc4ccccc4)c(C)nc3oc2c1	.	.	11%	-12%	.	.	3%[14.2 µM]	-6%
Cc1ccc(N(C)/N=C/c2ccc(Cl)cc2Cl)nn1	-2%	1%	.	-8%	.	.	.	49%[activator]
Cc1cc(OCC(=O)Nc2ccccc2F)nc(C(C)C)n1	3%	3%	25%	4%	5.2%	8%	-3%	-19%
CCCOc1nc2ccccc2cc1/C=C/C(=O)O	.	-2%	6%[46.1 µM]	-3%	.	.	5%[46.1 µM]	-11%
CC(=O)c1c(C)[nH]c(C(=O)OCC(=O)Nc2cc(S(=O)(=O)N3CCCC3)ccc2Cl)c1C	3%	-17%	?	4%	-4.7%	-2%	?	?
c1ccc2c(c1)OCC(CNc1ncnc3nc[nH]c13)O2 (stereo not given)	-44%	-1%	10%	2%	0.8%	1%	14%	?
CCN(CC)S(=O)(=O)c1ccc(C(=O)NCC(=O)N/N=C/c2ccccc2OC)cc1	-1%	?	-7%	-13%	.	.	2%	-8%
CC(=Nc1ccc(O)cc1)c1sc2ccccc2c1O	-24%	-16%	5%	22%	-0.6%	?	12%[46.1 µM]	38%[activator]
